# Screens as filed in PubChem BioAssay.
# AID504770: growth inhibition of E. coli YBA685, primary screen, V. cholerae RctB inhibitors; z-score (test concentration not listed); 130,000 compounds, 0.27% hits; AID 504770, 2011; E. coli YBA685 rctB-dependent plasmid, OD600 growth, 3 h; stronger effect = lower value;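 active = z-score under -2 on both plates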;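 also: wells of about 30 µL received 100 nL stock; score is relative to mean and SD of the test wells; the first replicate is given; strong numbers were not always called active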
# CapD inh: Bacillus anthracis CapD inhibitors, primary screen, biochemical, fluorescence intensity; CapD gamma-glutamyltranspeptidase (Bacillus anthracis Ames Ancestor); purified CapD enzyme, fluorescence intensity read-out; stronger effect = lower value; some hits fall short of the stated cut; z-score (test concentration not listed); 140,000 compounds, 0.23% hits; AID 492967, 2010;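 active = z-score under -4 in either of two replicates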;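 also: stock transfer was 100 nL into about 40 µL; score is relative to mean and spread of the plate; one replicate is shown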
# * hit, by the source's call; nt = no result given.
# Value order – CapD inh	AID504770
> NC(=O)CSc1n[nH]c(CN2c3ccccc3Sc3ccccc32)n1
→ -0.54	-0.05
> O=C(COC(=O)CCc1c[nH]c2ccccc12)Nc1cccc2nsnc12
→ nt	-0.65
> N#CC(C#N)=Cc1sccc1Br
→ -0.85	-0.75
> N#Cc1cc2c(cc1C#N)-n1c(-c3ccccc3)nnc1-c1cc3ccccc3cc1O2
→ -0.62	nt
> CCCNC(=O)c1ccc(NC(=O)N2CCSc3nc(C)cc(C)c32)cc1
→ -0.88	-0.55
> Cc1oc(-c2ccccc2)nc1CC(=O)NC(CC(C)C)C(=O)NNC(=O)OCc1ccccc1 (centres undefined)
→ 0.3	nt
> COCCn1c(C)cc(/C=N/n2c(C)nc3ccccc3c2=O)c1C
→ nt	-0.3
> Fc1ccc(-c2onc3ccc(-c4ccn[nH]4)cc23)cc1
→ -1	0.2
> O=C(Cc1ccccc1)NCc1cccs1
→ nt	0.65
> N#CC(C(=O)C12CC3CC(CC(C3)C1)C2)c1nc2ccccc2[nH]1 (centres undefined)
→ nt	-0.3

# Ordered by molecular weight (rising): some entries from above
# Value order – CapD inh	AID504770
> N#CC(C#N)=Cc1sccc1Br
→ -0.85	-0.75
> Fc1ccc(-c2onc3ccc(-c4ccn[nH]4)cc23)cc1
→ -1	0.2
> N#CC(C(=O)C12CC3CC(CC(C3)C1)C2)c1nc2ccccc2[nH]1 (centres undefined)
→ nt	-0.3

# (continued)
# Value order – CapD inh	AID504770
> CNC(=O)c1cc(Cl)ccc1OC
→ 0.22	-1
> c1ccc(-c2nn(-c3ccccc3)[n+](-c3ccccc3)n2)cc1
→ -0.55	-0.55
> Cc1ccc(Cn2cccc2C2=NC(Cc3ccccc3)CO2)cc1 (centres undefined)
→ 7	-0.65
> COc1ccc(/C(C#N)=C/c2ccco2)cc1
→ 3.4	nt
> Cc1cc(=O)n(-c2cc(Cl)c(S(=O)(=O)O)cc2Cl)[nH]1
→ -3.2	nt
> CCO/C=C1\SC(=S)NC1=O
→ -2.3	nt
> CCOC(=O)C1=C(c2ccccc2)N(CC(N)=O)C(=O)C12C(C#N)=C(N)Oc1ccccc12 (centres undefined)
→ nt	-0.65
> COc1cc(C(=O)n2nc(N)c3cc4ccc(C)cc4nc32)cc(OC)c1OC
→ -0.86	-0.1
> CCOC(=O)N1CCC(NS(=O)(=O)c2ccc3[nH]c(=O)ccc3c2)CC1
→ 3.9	-0.55
> O=C(NCc1ccc2c(c1)OCO2)C(Cc1ccccc1)n1cccc1 (centres undefined)
→ -0.69	-0.5

# Entries from the list above that contain two or more sulfur atoms:
# Value order – CapD inh	AID504770
> NC(=O)CSc1n[nH]c(CN2c3ccccc3Sc3ccccc32)n1
→ -0.54	-0.05
> CCO/C=C1\SC(=S)NC1=O
→ -2.3	nt

# Next section
# Value order – CapD inh	AID504770
> CCOC(=O)c1c(C)n(Cc2ccccc2)c2ccc(OCC(O)CNC(C)(C)C)cc12 (centres undefined)
→ 0.06	1.5
> CC1CCCN(c2ccc(C(F)(F)F)cn2)C1 (centres undefined)
→ 2.8	2.2
> CSC(=CC(=O)c1cccc2ccccc12)SC
→ -1	-0.1
> CC(=O)N1CCC(N(C(=O)Nc2cccc(Cl)c2)C2CC2)CC1
→ -1	nt
> CCOC(=O)C(=CNc1nc(-c2ccc3ccccc3c2)cs1)C(=O)OCC
→ 2	nt
> CNC(=O)CC1C(=O)N(C)C(=S)N1NC(=O)c1ccc(Cl)cc1 (centres undefined)
→ 0.26	-0.3
> O=C(Nc1cccnc1)c1ccc(Br)o1
→ -0.26	-0.75
> CCOC(=O)c1sc2nc(CC(=O)OC)nc(Nc3cc(F)ccc3C)c2c1C
→ 5.8	nt
> COc1ccc(CC#N)cc1
→ nt	-0.35
> COc1ccc(-c2oc3ncn(Cc4ccccc4)c(=N)c3c2-c2ccc(OC)cc2)cc1
→ -0.42	-0.1
> CC(=O)Nc1c(I)cc(I)c(C(=O)O)c1I
→ nt	-0.05
> CCN(CC(=O)N1CCc2ccccc2C1)S(=O)(=O)c1ccc(OC)cc1
→ -0.29	-0.4
> O=C(N/N=C1\CCc2ccccc21)c1cc(-c2ccco2)nc2ccccc12
→ nt	-0.1
> COc1ccc(C2C3=C(CCCC3=O)Nc3nc4ccccc4n32)cc1 (centres undefined)
→ -0.71	-0.1
> Cc1cc(C)c(NC(=O)CSCc2cnc(C)c(O)c2CO)c(C)c1
→ 4.1	2.1
> CCOC(=O)CSC1=C(C#N)C(c2ccc(C)o2)CC(=O)N1 (centres undefined)
→ -0.72	nt
> Cc1ccc(-c2nc(-c3cccc(C)c3)no2)cc1
→ -0.34	0
> Cc1ccc(C(=O)/C=C/Sc2nccc(C)n2)cc1
→ -0.21	-0.35
> CC1CN(C(=O)CC(c2ccccc2)c2ccccc2)CC(C)O1 (centres undefined)
→ nt	1.5
> COc1ccc(OC)c2sc(NC(=O)c3ccc4ncsc4c3)nc12
→ nt	0.45
> Cc1ccccc1CN
→ nt	-0.2
> Cc1ccccc1NC1SC(=O)N(Cc2ccccc2)C1=O (centres undefined)
→ 2.7	2.4
> N#Cc1c(NC(=O)NCc2ccco2)sc2c1CCC2
→ 1.5	-0.25
> CC(CNC(=O)c1csc2c1CCCC2)c1ccccc1 (centres undefined)
→ 0.82	0.45
> C=CCn1c(SCC(=O)N2CCN(CCO)CC2)nc2sc(C)c(C)c2c1=O
→ -1.1	nt
> O=C(CSc1nc2ccccc2[nH]1)n1c2ccccc2c2ccccc21
→ 26	2.4
> COc1ccc(CC(=O)NCCSc2c(-c3ccccc3)[nH]c3ccccc23)cc1OC
→ -0.01	0.25
> Nc1ccc(Sc2ccccc2)nc1
→ 12	0.2
> Cc1[nH]nc2c1C1=C(C(=O)CC(C)(C)C1)C(c1ccc(N(C)C)cc1)N2 (centres undefined)
→ 1.8	-0.05
> Cc1onc(-c2ccccc2)c1C(=O)Nc1nnc(N2CCCCCC2)s1
→ -0.12	1.1
> CC1C/C(=C/c2cccn2C)C(=O)/C(=C/c2cccn2C)C1 (centres undefined)
→ 1.6	1.1
> OC(CN1CCC(NC2CCCCC2O)CC1)Cn1ccc2ccccc21 (centres undefined)
→ -0.81	nt
> O=C(/C=C/c1ccco1)C1C(=O)c2ccccc2C1=O
→ nt	1.6
> O=C1C(=O)N(CCCn2ccnc2)C(c2ccc(Cl)cc2)/C1=C(\O)c1ccc(F)cc1 (centres undefined)
→ -0.33	0.45
> CCN(CC)S(=O)(=O)c1ccc(NC2CCN(Cc3ccccc3)CC2)nc1
→ nt	0.05
> Cc1nc(-c2c(C(=O)NNC(=O)OCCN(CCC#N)c3ccccc3)noc2C)cs1
→ -1.2	nt
> COc1ccc(C2=NN(C(=O)COc3ccccc3C(N)=O)C(c3ccco3)C2)cc1 (centres undefined)
→ nt	0.3
> CC(C)Nc1ncnc2onc(-c3ccc(F)cc3)c12
→ 1	0.35
> COc1ccc(-c2c(C#N)c(SCC(=O)Nc3ccccc3)nc(C)c2C(=O)Nc2ccccc2)cc1OC
→ 3.8	nt
> O=c1[nH]cc(COCC(F)(F)C(F)F)c(=O)[nH]1
→ nt	0
> CN(C)S(=O)(=O)c1cccc(-c2nnc3n2CCCCC3)c1
→ nt	1.2
> O=C(N/N=C/c1cccnc1)c1nc2ccccc2c(=O)[nH]1
→ nt	-0.2
> N=C1S/C(=C/c2ccc(-c3cccc(C(=O)O)c3)o2)C(=O)N1c1nonc1N
→ -6.1*	nt
> CCOC(=O)C1=NOC2C(=O)N(c3ccc(Cl)cc3)C(=O)C12 (centres undefined)
→ -0.12	-0.2
> COc1ccc(NC(=O)C(Cc2ccccc2)NC(=O)c2ccco2)cc1OC (centres undefined)
→ -0.67	0.1
> NC(=O)/C(=C\c1ccco1)NC(=O)c1ccco1
→ nt	0.55
> O=C1C2ON(c3ccccc3)C(c3ccccn3)C2C(=O)N1Cc1ccccc1 (centres undefined)
→ 0.38	nt
> O=C(OCC1CCCN(Cc2ccccc2F)C1)N1CCN(c2cc(C(F)(F)F)ccn2)CC1 (centres undefined)
→ 68	nt
> Cc1cc(C)c(C(N)=O)c(NC(=O)Nc2ccc(OC(F)(F)F)cc2)n1
→ 0.39	nt
> CN1/C(=C\C(=O)CN2CCc3ccccc3C2)C(C)(C)c2ccccc21
→ nt	-0.2

# Four successive records out of the list so far, quoted:
# Value order – CapD inh	AID504770
> Cc1ccc(C(=O)/C=C/Sc2nccc(C)n2)cc1
→ -0.21	-0.35
> CC1CN(C(=O)CC(c2ccccc2)c2ccccc2)CC(C)O1 (centres undefined)
→ nt	1.5
> COc1ccc(OC)c2sc(NC(=O)c3ccc4ncsc4c3)nc12
→ nt	0.45
> Cc1ccccc1CN
→ nt	-0.2

# (further entries)
# Value order – CapD inh	AID504770
> CC(CN1CCOCC1)OC(=O)C(C)(c1ccccc1)c1ccccc1 (centres undefined)
→ nt	-0.05
> N#Cc1c(NC(=O)CSc2ncccn2)sc2c1CCCC2
→ 0.44	0.6
> O=C1OC(/C(=C\Nc2ccc(Oc3ccccc3)cc2)[N+](=O)[O-])c2ccccc21 (centres undefined)
→ 0.05	nt
> Cc1cc(C)n2nc(C(=O)N3CCOCC3)nc2n1
→ -0.79	-0.85
> O=C(NC1CC1)c1ccc2c(c1)N(Cc1ccc(F)cc1)CCS2
→ 58	-0.85
> CNC(=O)NC(=O)CSc1nnc(Nc2ccccc2C)s1
→ nt	1.8
> CCC(=O)Nc1ccc2nc(SCC(=O)NCC3CCCO3)sc2c1 (centres undefined)
→ 0.62	nt
> CC1(COC(=O)NC2CCN(Cc3c(F)cccc3Cl)C2)COC1 (centres undefined)
→ -0.45	nt
> CS(=O)(=O)c1cccc(S(=O)(=O)NCc2cccnc2)c1
→ -0.15	2
> Cc1ccc(O)c(-c2cc(C(F)(F)C(F)(F)F)nc(-c3ccccc3)n2)c1
→ 12	-0.8
> CCOC(=O)c1sc(=S)n(-c2ccccc2)c1N
→ -0.7	nt
> CCOc1cc(C2C(C(=O)OCCc3ccccc3)=C(C)NC3=C2C(=O)CC(c2cccs2)C3)cc([N+](=O)[O-])c1O (centres undefined)
→ -0.9	nt
> COCCSc1ccccc1C(=O)N1CCOCC1
→ 0.43	-0.35
> COc1cc(/C=N/NC(=O)c2cc(C)n(-c3ccc(F)cc3)c2C)ccc1OC(=O)c1ccco1
→ nt	0.15
> CC1CCN(S(C)(=O)=O)CC1
→ 0.24	-1
> CN(Cc1ccccc1)C(=O)C1CCN(c2nc3cccnc3s2)CC1
→ -1.2	1.7
> COc1ccc(C2(C(=O)NCc3ccco3)CCCC2)cc1OC
→ 59	-1.1
> COc1ccc(N2CCN(c3cc(=O)n(C4CCCCC4)c(=O)[nH]3)CC2)cc1
→ -0.95	nt
> O=C(CSc1ccccc1)NC1CC1
→ 0.25	-0.4
> CN(c1ccccc1C(=O)O)S(=O)(=O)c1ccc2c3c(cccc13)C(=O)N2
→ -1.4	1.3
> O=C(CN1C(=O)CCSc2ccccc21)N1CCCC1
→ -0.59	-0.6
> CN(C)CCCNc1c(N)c(=O)oc2ccccc12
→ 7.4	-0.3
> CC1(C)CC(=O)C2=C(C1)OC1=C(C(=O)CC(C)(C)C1)C2c1cn(Cc2ccc(Cl)c(Cl)c2)nc1-c1ccccc1
→ 0.36	nt
> COCCn1cnnc1SCC(=O)NC(=O)C1CCCCC1
→ nt	-0.15
> CC1CN(S(=O)(=O)c2ccc(F)cc2)C(C)CN1S(=O)(=O)c1ccc(F)cc1 (centres undefined)
→ 60	nt
> CSc1sc(=S)sc1SC
→ -0.065	-0.55
> CCn1c(C2COc3ccccc3O2)n[nH]c1=S (centres undefined)
→ -0.06	-0.7
> O=C1C(=O)N(c2nccs2)C(c2ccccc2Cl)/C1=C(/O)c1ccc(F)cc1 (centres undefined)
→ -0.73	nt
> c1ccc2c(c1)[nH]c1nc(SCCN3CCCCC3)nnc12
→ -0.56	-0.65
> CCOC(=O)Cc1nnc(-c2ccccc2)o1
→ 1.1	0.4
> COc1cccc(C2C(=O)N(C3CCC(C)CC3)CC(=O)N2CCc2ccccc2)c1OC (centres undefined)
→ -0.9	-0.15
> N#CCOC(=O)c1cc2c(s1)CCCCC2
→ nt	1.5
> CNc1nc2ccccc2n2c(C)nnc12
→ -1.3	0.5
> COc1cccc(NC(=O)C2CCN(c3nn4c(=O)cc(C)nc4s3)CC2)c1
→ 0.21	-0.2
> CCOC(=O)C1CCN(C(=O)C(Cc2ccccc2)NS(=O)(=O)c2ccc3c(c2)CCC(=O)N3)CC1 (centres undefined)
→ 0.83	-0.25
> CC1CCc2[nH]c3ccc(C(=O)NCCCN4CCCC4=O)cc3c2C1 (centres undefined)
→ nt	1.1
> COc1ccc(-c2ccc(=O)n(CC(=O)Nc3ccc(C)cc3)n2)cc1
→ 7.8	-0.55
> CCCc1nc(NCCc2cccs2)c2nnn(Cc3ccccc3Cl)c2n1
→ nt	1.9
> CCOC(=O)c1ccc(N2N=C(C)/C(=C\c3ccc(OCc4ccccc4)c(OC)c3)C2=O)cc1
→ -0.29	nt
> CC(=O)Nc1ccc2c(c1)CCc1ccccc1-2
→ -0.56	-0.9
> COP1(OC)=NP(OC)(OC)=NP(OC)(OC)=NP(OC)(OC)=N1
→ nt	2.1
> CCc1nnc(NC(=O)c2c(C)nn(-c3ccccc3)c2Cl)s1
→ nt	1.1
> COc1ccc2c(C)cc(SCC(=O)Nc3ccc4c(c3)OCO4)nc2c1
→ -0.16	-0.45
> O=C(/C=C/c1ccco1)N1CCN(Cc2ccccc2)CC1
→ 0.11	-0.2
> CNC(=S)Nc1ccc(OC(F)(F)F)cc1
→ 0.07	2.1
> Cc1ccc2nc3c(c(N)c2c1)CCCC3
→ nt	-0.55
> Clc1nc2ccccc2c2nnc(-c3ccc(Br)cc3)n12
→ 0.32	nt
> CCOc1ccccc1NC(=O)CSc1nc2n[nH]c(C)c2c(=N)n1-c1ccc(Br)cc1
→ 0.56	nt
